RanGTP-Impb inh = inhibitors of RanGTP-importin-beta interaction, primary screen, biochemical, FRET, CFP-Ran, YFP-importin-beta, homogeneous; cell-free CFP-Ran/YFP-importin-beta FRET ratio; inhibition, % (concentration not given with the values); actives 1.1% (n = 300,000);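 active = most replicates above 15%; inconclusive = exactly half above 15%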;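 note: 0% = DMSO wells and 100% = Ran loaded with GDP instead of GTP; wells of about 40 µL received 100 nL stock; the first replicate is given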
UCH37 inh = inhibitors of human UCH37 deubiquitinase, primary screen, biochemical, Ub-AMC cleavage, fluorescence; Ubiquitin carboxyl-terminal hydrolase isozyme L5 (Homo sapiens), Q9Y5K5; purified proteasome/UCH37; inhibition, % (no concentration beside the values); actives 0.33% (n = 330,000); AID 588478, 2011;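 active = mean of two replicates above 20%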;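 note: 0% = compound-free wells with enzyme and 100% = wells lacking proteasome; stock transfer was 100 nL into about 20 µL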
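system = Proteasome-associated human UCH37 deubiquitinase | amount = 0.15 nM proteasome as dispensed | medium = pH 7.4 Tris-HCl (50 mM) with ovalbumin, ATP-MgCl2, DTT | incubation = 30 min preincubation with enzyme, 25 min cleavage at room temperature | detection = AMC fluorescence 355/460 nm | read-out basis = percent inhibition | controls = no-proteasome and no-compound wells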
HNF4A DNA FP = change in binding of human HNF4A to DNA, primary screen, biochemical, fluorescence polarization, FITC-DNA; 1 h; activity change, % at 10 µM; actives 0.3% (n = 360,000); in the data active = activity change above about 30%, passing the limit was not always enough;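 note: controls were the assay level and a saturating level of protein; the project sought stronger binding though the title names inhibitors; some compounds called inactive have numbers as strong as hits; positive values seem to mean higher polarization but the record does not say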
Target sequence (P41235 whole entry, looked up): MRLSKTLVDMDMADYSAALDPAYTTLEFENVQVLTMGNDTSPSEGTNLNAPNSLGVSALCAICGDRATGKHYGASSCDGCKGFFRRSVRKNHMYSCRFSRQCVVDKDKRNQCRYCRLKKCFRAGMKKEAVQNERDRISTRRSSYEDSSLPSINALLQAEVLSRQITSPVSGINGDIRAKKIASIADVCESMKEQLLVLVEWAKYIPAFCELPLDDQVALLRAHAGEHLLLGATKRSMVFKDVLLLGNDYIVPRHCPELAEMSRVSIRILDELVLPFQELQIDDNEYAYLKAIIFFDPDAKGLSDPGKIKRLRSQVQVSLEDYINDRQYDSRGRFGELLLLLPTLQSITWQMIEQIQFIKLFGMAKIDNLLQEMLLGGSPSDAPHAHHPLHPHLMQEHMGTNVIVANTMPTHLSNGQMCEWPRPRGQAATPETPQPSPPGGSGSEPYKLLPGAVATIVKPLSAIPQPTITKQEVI
FGF22 binding = binders of human FGF22 protein, primary screen, FGF22 synaptogenesis inhibitor project, biophysical, thermal shift, single point | recombinant FGF22 thermal shift, SYPRO orange fluorescence; percent of sucrose octasulfate shift, DMSO zero | Fibroblast growth factor 22 (Homo sapiens), Q9HCT0 | calls only at 9.99 µM | actives 1.5% (n = 340,000);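 active = melting point raised past a set limit in the mean and every replicate; inconclusive = no clear call; three in four hits are not shown here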
AF4-AF9 inh = inhibitors of AF4 peptide binding to AF9, primary screen, biochemical, AlphaScreen, biotin-AF4 peptide, FLAG-AF9, single point | actives 0.47% (n = 350,000) | Protein AF-9 (Homo sapiens), P42568 | AID 651704, 2012 | inhibition, % at 10 µM;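 active = every replicate reaching a set inhibition limit, whatever the replicate mean, cut at about 25% in these data; inconclusive = mean inhibition reaches that limit but some replicates miss it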;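 note: 0% = plate neutral control median and 100% = total signal loss; the record names both 10 and 1 µM as test concentration; the first replicate is given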
Target sequence (P42568 whole entry, looked up): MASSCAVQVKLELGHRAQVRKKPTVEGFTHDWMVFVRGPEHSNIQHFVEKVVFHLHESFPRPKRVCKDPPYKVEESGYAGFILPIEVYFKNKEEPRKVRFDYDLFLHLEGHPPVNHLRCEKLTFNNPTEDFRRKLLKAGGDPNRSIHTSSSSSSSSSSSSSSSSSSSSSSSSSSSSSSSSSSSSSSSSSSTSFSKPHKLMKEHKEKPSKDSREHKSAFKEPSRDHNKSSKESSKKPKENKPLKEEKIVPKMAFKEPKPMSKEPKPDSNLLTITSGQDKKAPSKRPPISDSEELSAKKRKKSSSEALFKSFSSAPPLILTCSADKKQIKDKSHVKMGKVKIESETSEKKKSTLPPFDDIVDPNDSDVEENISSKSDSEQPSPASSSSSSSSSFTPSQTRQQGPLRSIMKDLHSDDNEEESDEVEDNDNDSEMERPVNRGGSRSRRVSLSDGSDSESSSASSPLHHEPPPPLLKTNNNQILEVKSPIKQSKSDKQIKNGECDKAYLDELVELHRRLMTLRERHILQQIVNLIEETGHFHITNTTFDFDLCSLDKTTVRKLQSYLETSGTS
Vif A3G = inhibitors of Vif binding to APOBEC3G peptide, primary screen, biochemical, TR-FRET, GST-Vif 1-94, biotin-A3G peptide, dose response retest (AID 1117319); inhibition, %; hits with a dose series show IC50 in µM; Virion infectivity factor (Human immunodeficiency virus type 1 group M subtype B (isolate …; actives 0.57% (n = 260,000); TR-FRET GST-Vif / biotin-A3G peptide binding; higher % means a stronger effect; test concentration not given here; strong numbers were not always called active;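 active = above the screen mean plus three standard deviations and confirmed in dose response; inconclusive = results disagree or hit not tested in dose response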;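 note: Vif residues 1-94 fused to GST binding biotinylated APOBEC3G peptide 110-148; 0% = full assay without inhibitor and 100% = GST in place of GST-Vif; retest series ran down from 100 µM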
Ecoli growth = E. coli growth inhibition, primary screen, OD600. Escherichia coli growth, 23 h; hits give low values. OD600 absorbance (no concentration beside the values). actives 0.21% (n = 330,000). AID 1053175, 2014;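 active = OD600 absorbance below the run mean of sample wells minus 3.6 SD, in any replicate, cut at about 0.56 in these data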;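 note: stock transfer was 300 nL into about 60 µL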
* = called active by the depositor; i = inactive; ? = inconclusive; nt = no result given. Not all compounds are listed; the hit share may differ from the screen's.

Compound	FGF22 binding	AF4-AF9 inh	Ecoli growth	RanGTP-Impb inh	UCH37 inh	Vif A3G	HNF4A DNA FP
O=C(CSc1ncccn1)Nn1cnnc1	nt	nt	0.675	8.0	0.1	10.1%	0.6
CN1CCN(C(=O)C23CC4CC(CC(C4)C2)C3)CC1	nt	nt	0.765	?	0.1	-7.9%	nt
N#Cc1cnn(CC2CCCCC2)c1N	nt	nt	0.704	0.2	-6.0	-1.6%	-0.9
CCCc1c(C(=O)N/N=C(\C)c2ccccc2O)nnn1-c1nonc1N	i	-1.3	nt	nt	nt	-2.9%	-0.6
CCc1ccc(NC(=S)N2CCC(NC(=O)C3CCCCC3)CC2)cc1	i	-1.5	0.732	-0.1	5.0	nt	1.6
COc1ccc(-n2nc(C(=O)Nc3ccc4c(c3)OCO4)c3c4ccccc4n(C)c3c2=O)cc1	nt	nt	0.793	2.2	-6.3	nt	-3.0
COc1ccc(-c2csc(NC(=S)NC(=O)c3ccc4ccccc4c3)n2)cc1OC	i	-1.4	0.697	?	3.2	-7.7%	-8.0
CCCCCC1CC(CC(=O)NC(=S)Nc2ccccc2Cl)C(=O)O1 (stereo not drawn)	nt	-2.2	0.696	-1.9	0.5	17.7%	6.6
CN(C)c1ncnc2c1ncn2[C@H]1CN(Cc2ccc(Cl)cc2)C[C@@H](CO)O1	i	2.9	nt	nt	nt	nt	-1.9
c1ccc(-c2ccc(CN3CCSCC3)cc2)cc1	i	0.7	0.625	4.7	0.9	2.7%	1.9
CC1CC(C)CN(S(=O)(=O)c2ccc(C(=O)OCC(=O)Nc3ccccc3)cc2)C1 (stereo not drawn)	i	-1.4	nt	nt	nt	3.3%	-0.6
COCCn1c(SCC(=O)NC2CCCCC2C)nc2ccccc2c1=O (stereo not drawn)	i	-1.0	0.653	-3.8	0.6	nt	-0.8
O=C(CN1CCCC1)NCC(=O)Nc1ccc(F)cc1	i	0.0	0.72	-2.1	5.2	-3.8%	1.1
N#Cc1c(NC(=O)CSc2ncc(-c3ccccc3)n2CC2CCCO2)sc2c1CCCC2 (stereo not drawn)	nt	nt	0.716	3.6	4.7	0.1%	-2.2
CCOc1ccc2ccc(OCC)c(/C=N/n3cnnc3)c2c1	i	-4.5	nt	-3.7	nt	nt	-0.3
CCCc1ccc(OCc2ccc(C(=O)N/N=C/c3cccnc3)o2)cc1	i	-2.2	nt	1.0	nt	nt	-0.5
CC(C)CC1NC(=O)N(CC(=O)N2c3ccccc3NC(=O)C2(C)C)C1=O (stereo not drawn)	i	-2.9	0.689	-1.7	4.1	-1.4%	0.0
C/C(=N\Nc1ccc([N+](=O)[O-])cc1)c1cccc(N)c1	nt	?	nt	-0.6	nt	-2.4%	12.0
CCn1c(SCc2nc3ccccc3c(=O)[nH]2)nc2ccccc21	i	-5.2	0.707	-3.7	-0.1	nt	-7.2
O=[N+]([O-])c1ccc2oc(C3CCCCC3)nc2c1	i	-1.9	0.709	-0.5	7.7	8.4%	0.3
CCOC1=C2CN(S(=O)(=O)c3ccc(C)cc3)[C@H](c3ccccc3)C[C@H]2[C@H]2C(=O)N(c3ccccc3)C(=O)[C@H]2C1	i	-75.1	nt	nt	nt	nt	-3.5
CC1CC2OC(=O)C3(C)CCCC(C)(C23)C1(O)CCc1ccoc1 (stereo not drawn)	i	4.6	0.671	2.0	1.2	-6.1%	4.7
Cc1ccccc1C(=O)Nc1nnc(-c2cccnc2)o1	i	-2.0	0.714	8.6	1.7	-2.9%	3.4
CCc1ccc(OC2(C)CCN(Cc3ccc(SC)cc3)C2)cc1 (stereo not drawn)	i	-1.5	nt	nt	nt	nt	1.5
CCn1cc(/C=C(\NC(=O)c2ccccc2F)C(=O)N2CCCC2)c2ccccc21	nt	nt	0.681	0.2	11.6	nt	-1.4
CN(Cc1cccc(Cl)c1Cl)C(=O)c1ccccc1SCC(=O)N1CCCC1	i	-10.1	0.688	nt	6.1	3.9%	-2.4
CC1C(=O)C(C)C(c2ccccc2F)NC1c1ccccc1F (stereo not drawn)	i	-2.3	0.662	-2.3	5.1	3.0%	-2.3
CCC(=O)Nc1cccc(-c2nnc(-c3cccc(NC(=O)CC)c3)o2)c1	i	-0.7	0.705	-0.6	1.8	-8.2%	-4.3
Cc1c(Cl)cccc1NC(=O)Cn1c(-c2ccc(F)cc2)noc1=O	i	0.1	0.677	0.5	1.4	2.2%	-4.4
Fc1ccc(CNc2nc(-c3ccco3)cc(C(F)(F)F)n2)cc1	nt	nt	0.714	58.2*	-12.6	9.7%	4.9
Cn1c(CCC(=O)OCC(=O)NCc2ccccc2Cl)nc(=O)c2ccccc21	i	0.4	0.677	-1.2	-1.0	?	6.7
Cc1cccc(CC(C)NC(=O)CCc2nnc(CCCCc3ccccc3)o2)n1 (stereo not drawn)	i	-1.1	0.704	2.2	0.3	-2.2%	-0.8
CC1CCCC(NC(=O)CCC(=O)N2CCOc3ccccc32)C1C (stereo not drawn)	i	-2.1	0.643	2.5	1.4	nt	-1.1
Cc1ccc(C23CC4CC(CC(C(=O)NC(C)C)(C4)C2)C3)cc1	i	-3.9	0.653	3.9	2.8	nt	2.3
O=C(NCCNC(=O)c1ccc(Cl)cc1Cl)c1ccco1	i	-2.6	0.662	2.5	-0.1	nt	-0.6
Cc1cccc(NC(=O)c2ccccc2NC(=O)c2ccco2)c1	i	-4.9	0.717	3.2	0.3	nt	0.8
CC(C)CCn1c(Sc2nc3ccccc3o2)nc2c1c(=O)[nH]c(=O)n2C	nt	nt	0.675	0.1	1.3	10.0%	-0.1
CCCN1CN=C(NS(=O)(=O)c2ccc(C)cc2)NC1	i	-7.8	0.722	-0.8	2.8	nt	0.2
Cc1ccc(C)c2nc3sc(C(=O)N4CCOCC4)c(N)c3cc12	i	7.5	0.71	?	2.0	3.1%	7.2
O=C(NC(Cc1c[nH]c2ccccc12)C(=O)N/N=C/c1ccc(Br)cc1)c1cccs1 (stereo not drawn)	i	-5.0	nt	-0.3	nt	9.2%	-5.2
CC1(C(=O)Nc2ccc(Cl)c(Cl)c2)CCN1C(=O)CC(c1ccccc1)c1ccccc1 (stereo not drawn)	i	-1.1	nt	nt	nt	nt	-2.6
O=C(N/N=C/c1ccc(N2CCOCC2)cc1)c1ccccn1	i	-1.5	nt	6.8	nt	-11.8%	5.8
O=C(CN1C2CCCC1CC(NC(=O)C1CCCCC1)C2)NCc1ccc(F)cc1 (stereo not drawn)	i	-34.6	0.685	3.4	4.6	nt	1.8
O=C(C(Cc1ccccc1)n1cccc1)N1CCN(c2ncccn2)CC1 (stereo not drawn)	i	-3.0	0.696	0.3	-0.6	-3.8%	-0.2
CCN(CC)CCCN1CC(=O)N2[C@@H](Cc3c([nH]c4ccccc34)C2(C)C)C1=O	i	1.7	0.658	0.6	4.1	14.5%	2.1
CCn1c(SCCOc2ccc(Cl)cc2)nnc1-c1cccs1	nt	nt	0.677	-5.0	0.7	?	0.5
Cc1ccn2cc(C(=O)Nc3cccc(C(=O)NC4CC4)c3)nc2c1	i	13.8	0.608	nt	1.5	3.4%	-2.4
CCOC(=O)C1=C(C)N=c2s/c(=C/c3cccc([N+](=O)[O-])c3O)c(=O)n2C1c1ccccc1 (stereo not drawn)	i	0.2	nt	1.5	nt	nt	4.0
COc1ccc(S(=O)(=O)NCC(=O)NCc2cc(=O)n(C)c(=O)n2C)cc1C	i	1.4	0.719	?	0.8	nt	1.6
COC(=O)[C@@H]1C[C@@]2(O)[C@H](O)[C@H](O)[C@H](O)C[C@H]2N1Cc1ccc(C(C)(C)C)cc1	i	-1.8	nt	-1.1	4.1	nt	1.7
COc1ccc2c(c1OC)C(=O)OC2Nc1ncc(Br)cc1Br (stereo not drawn)	nt	nt	0.703	5.6	-0.9	1.7%	-1.6
CC1=CC(=NOC(=O)/C=C/c2ccccc2)C=C(C)C1=O	nt	nt	0.727	?	10.7	4.8%	-2.0
Cc1ccc(NC(=O)C(C)OC(=O)CSc2ccccc2)cc1 (stereo not drawn)	i	-7.4	0.644	nt	2.6	7.2%	1.4
CCC(=O)NC(=S)Nc1cccc(NC(=O)c2ccc(Cl)cc2Cl)c1	nt	nt	0.743	0.2	1.8	1.5%	-0.7
FC(F)(F)c1cccc(NC(=S)Nc2cccc(NC(=S)Nc3cccc(C(F)(F)F)c3)n2)c1	i	4.4	0.64	14.8*	2.9	-2.4%	4.5
COc1ccc(/C=C/C(=O)N2CCN(C)CC2)cc1OC	i	-0.9	0.708	5.4	-12.5	nt	-1.4
CCCNC(=O)c1cc2nc(-c3ccccc3)cc(C(F)(F)F)n2n1	nt	nt	0.75	-1.6	-23.5	16.0%	4.2
O=C(O)C1C2C=CC3(O2)C1C(=O)N1c2ccccc2COC13 (stereo not drawn)	nt	nt	0.792	3.1	6.6	2.5%	1.7
CCS(=O)(=O)N1CCC(C(=O)NCc2cccs2)CC1	nt	nt	0.671	1.2	4.6	-0.2%	-1.8
CCCCn1nc(C(=O)NNC(=O)c2ccncc2)c2ccccc2c1=O	nt	nt	0.694	-0.9	4.0	nt	-0.3

Remaining list, next part.
Compound	FGF22 binding	AF4-AF9 inh	Ecoli growth	RanGTP-Impb inh	UCH37 inh	Vif A3G	HNF4A DNA FP
CCOC(=O)C1(Cc2cccc(OC)c2)CCN(C/C=C/c2ccc(OC)cc2)CC1	nt	12.6	nt	2.1	5.4	-5.8%	-7.9
CCN(CCCNC(=O)COc1cc(=O)n(C)c2ccccc12)c1cccc(C)c1	nt	nt	0.679	-6.3	-1.0	3.1%	-4.1
CC(=O)COC(=O)C1=NN(c2ccccc2)C(=O)CC1	i	-3.1	0.69	-1.3	1.6	-9.1%	4.4
O=C(NCc1ccccc1C(F)(F)F)C1CC(c2ccccc2[N+](=O)[O-])=NO1 (stereo not drawn)	i	6.4	0.66	1.7	0.4	8.5%	10.2
O=C(CSc1nnc(CNC(=O)c2cccs2)o1)Nc1ccccc1C(F)(F)F	i	-2.2	0.67	-0.6	5.6	nt	-0.9
COCCN(Cc1ccc(F)cc1)C(=O)c1cc2ccccc2oc1=O	i	2.6	0.693	?	1.5	nt	209.1
COCCNC(=O)CCC1CCN(Cc2cccc(Oc3ccccc3)c2)CC1	i	-2.8	0.66	3.6	2.5	4.3%	-2.2
CC(C)N1C(=O)N(c2cccc(Cl)c2)C(C)(O)CC1(C)C (stereo not drawn)	i	-2.0	0.657	3.6	0.3	nt	-4.8
COc1ccc(C(O)c2nc(-c3cccs3)cs2)cc1 (stereo not drawn)	i	-0.4	nt	nt	nt	nt	1.7
Cc1sc2ncnc(SCC(=O)Nc3ccc(CN4CCCC4)cc3)c2c1C	i	9.5	0.656	nt	-1.2	-26.4%	9.9
CN(CC(=O)NC(=O)NC1CCCCC1)CC(=O)Nc1ccccc1C(F)(F)F	i	-16.1	nt	nt	nt	-2.6%	-4.2
C/C(CC(=O)Nc1ccc(Cl)cc1Cl)=N\NC(=O)c1cnccn1	i	-1.0	nt	-0.5	nt	-2.6%	0.0
